Screening results (PubChem)
RecA intein inh = inhibitors of M. tuberculosis RecA intein splicing; 290,000 tested, 0.75% active; P9WHJ3; inhibition, %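 (about 9 µM by stock and volumes)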; cell-free RecA intein splicing, fluorescence; AID 2221; in the data active = inhibition above about 30%; inconclusive = no clear call, values can overlap the other calls;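 note: 0% = vehicle wells and 100% = reference inhibitor control wells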
Target sequence (P9WHJ3 whole entry, looked up): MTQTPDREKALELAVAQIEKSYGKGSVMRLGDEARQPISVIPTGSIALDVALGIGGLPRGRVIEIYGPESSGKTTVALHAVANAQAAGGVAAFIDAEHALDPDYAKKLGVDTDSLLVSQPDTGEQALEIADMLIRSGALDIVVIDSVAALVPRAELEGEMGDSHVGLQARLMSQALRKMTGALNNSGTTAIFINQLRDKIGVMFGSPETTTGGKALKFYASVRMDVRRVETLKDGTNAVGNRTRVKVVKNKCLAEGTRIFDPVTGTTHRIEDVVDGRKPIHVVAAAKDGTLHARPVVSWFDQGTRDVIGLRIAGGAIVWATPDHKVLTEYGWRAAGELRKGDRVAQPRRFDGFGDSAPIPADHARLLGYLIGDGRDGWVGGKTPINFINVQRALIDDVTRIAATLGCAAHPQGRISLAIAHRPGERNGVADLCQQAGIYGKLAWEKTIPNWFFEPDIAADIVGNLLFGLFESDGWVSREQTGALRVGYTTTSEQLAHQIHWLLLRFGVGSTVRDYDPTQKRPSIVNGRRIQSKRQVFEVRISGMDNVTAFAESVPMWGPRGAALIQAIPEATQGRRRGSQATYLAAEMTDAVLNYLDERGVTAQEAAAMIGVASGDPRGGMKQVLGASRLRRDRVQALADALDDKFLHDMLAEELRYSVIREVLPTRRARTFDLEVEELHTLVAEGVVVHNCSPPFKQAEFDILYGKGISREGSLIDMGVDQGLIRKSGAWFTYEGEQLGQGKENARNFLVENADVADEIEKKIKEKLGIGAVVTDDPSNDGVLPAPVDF
Mtb betalactam = beta-lactam sensitization of Mtb H37Rv. 330,000 tested, 0.27% active. M. tuberculosis H37Rv growth with meropenem, percent inhibition; hits of this screen are not shown here. AID 434955. inhibition, % at 25 µM;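 active = about 74% or more and at least 40 points above the plate without the antibiotic, then above 30% in a dose series; inconclusive = first-round hits that could not be retested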;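 note: growth measured after seven days incubation then overnight dye step; 0% = bacteria only wells and 100% = bacteria with antibiotic; twin plates without the antibiotic show which effects depend on it; some results filed as inactive read as strong as hits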
Arbovirus anti = blocks arbovirus infection; inhibition, % at 10 µM; arbovirus infection cell-based antiviral screen; 200,000 tested, 0.37% active; AID 1251;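 active = inhibition from about 30%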;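 note: bluetongue infection of BSR cells; cell survival read as ATP light after 72 h; 0% = infected wells without compound and 100% = uninfected wells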
Mtb growth = M. tuberculosis H37Rv growth inhibitors, H37Rv strain (AID 1626). M. tuberculosis H37Rv growth inhibition; higher % means a stronger effect. one-dose inhibition, % at 10 µM; IC50 in µM for titrated hits. 220,000 tested, 0.95% active;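 active = confirmed in a dose series; inconclusive = inhibition above 80% but not taken into the dose series; inactive = below 80% or under 30% at every dose of the series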;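 note: bacteria incubated seven days before Alamar blue readout; 0% = bacteria only wells and 100% = bacteria with antibiotic wells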
YopH PTP inh = inhibitors of Yersinia enterocolitica YopH tyrosine phosphatase; fluorescence Ex485/Em525; inhibition, %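 (about 10 µM by stock and volumes)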; 140,000 tested, 0.16% active; AID 898;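 active = inhibition of 50% or more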;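 note: controls were vehicle for no effect and minimum signal wells for full effect; inactives centre near -20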
Arbovirus anti repeat = second read-out of Arbovirus anti, no call of its own (marks repeat the call); inhibition, %; measured here: 10K subset replicate screen; many hits read low in the repeat;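 first of two repeat runs on a subset; 0% = infected and 100% = uninfected wells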
* hit, by the source's call; ? = inconclusive; . = no result given. Some of the compounds tested; count on the stated rates, not on these rows.

Sample of the layout:
SMILES | RecA intein inh | Mtb betalactam | Arbovirus anti | Mtb growth | YopH PTP inh | others
Cc1ccc(S(=O)(=O)N2CC=C(C(=O)NCc3ccccc3)CC2)cc1 | 1.5 | -6 | -1 | -1% | -33
Cn1ncc(C#N)c1/N=C/N1CCCC1 | -1.2 | -4 | 1 | 0% | 10
O=C(CSc1nc2ccccc2c(=O)n1-c1ccc(F)c(Cl)c1)Nc1cccc(S(=O)(=O)N2CCOCC2)c1 | -0.9 | 0 | 3 | -1% | -19
Cc1nc2nc(CSc3nnc(C)s3)cc(=O)n2[nH]1 | -1.0 | -7 | -2 | -2% | -43

All compounds of this part, previewed entries included:
SMILES | RecA intein inh | Mtb betalactam | Arbovirus anti | Mtb growth | YopH PTP inh | others
Cc1ccc(S(=O)(=O)N2CC=C(C(=O)NCc3ccccc3)CC2)cc1 | 1.5 | -6 | -1 | -1% | -33
Cn1ncc(C#N)c1/N=C/N1CCCC1 | -1.2 | -4 | 1 | 0% | 10
O=C(CSc1nc2ccccc2c(=O)n1-c1ccc(F)c(Cl)c1)Nc1cccc(S(=O)(=O)N2CCOCC2)c1 | -0.9 | 0 | 3 | -1% | -19
Cc1nc2nc(CSc3nnc(C)s3)cc(=O)n2[nH]1 | -1.0 | -7 | -2 | -2% | -43
COc1ccc(NC(=O)C/C(C)=N/NC(=O)COc2ccc(OC)cc2)cc1 | 0.2 | 59 | . | . | .
O=C(N=C1SC2CS(=O)(=O)CC2N1Cc1ccccc1)C1CCCCC1 (centres undefined) | 0.6 | -3 | . | . | .
CN1CCN(C2CCCCC2NS(=O)(=O)c2ccccc2)CC1 (centres undefined) | 3.3 | 0 | . | . | .
COc1ccc2c(c1)CC1(CN2C)C(=O)NC(=O)N(CCc2ccccc2)C1=O (centres undefined) | -3.2 | -2 | 6 | -1% | -36
COc1ccc(C(C(=O)NC(C)C)N(C(=O)CCC(=O)Nc2nccs2)c2ccccc2F)cc1 (centres undefined) | 2.3 | 3 | -4 | -3% | .
CCOC(=O)C1CCN(S(=O)(=O)c2ccc3c(c2)CC(C)N3C(=O)C2CCC2)CC1 (centres undefined) | 0.0 | 11 | . | . | .
CC(C)CC(=O)Nc1cccc(-c2nc3ccccc3[nH]2)c1 | -12 | 1 | . | 8% | .
CCCCOc1ccc(C(=O)NC)cc1 | 0.0 | -16 | 0 | -2% | -12
COc1cc(C(=O)n2cnc3ccccc32)c([N+](=O)[O-])cc1OC | -1.6 | -6 | . | . | .
Cn1ncc(Cl)c1C(=O)Nc1cc(C(F)(F)F)ccc1F | 2.3 | -11 | 9 | -5% | -23
Cc1cccc(NC(=O)c2ccc(C(=O)Nc3cccc(C)c3)nc2)c1 | -0.5 | 1 | -13 | 3% | -32
NC(=O)CCn1cnc2ccccc21 | -1.2 | -5 | . | -11% | .
Cc1ccc(S(=O)(=O)N(C)C)cc1NC(=O)COC(=O)Cc1ccccc1F | 1.5 | 3 | . | . | .
CCCCN1C(=O)/C(=C2\SC(N3CCCCC3)=NC2=O)c2ccccc21 | 2.1 | 34 | -10 | 3% | -34 | Arbovirus anti repeat=-8
Cc1cc(C)n(-c2ccc(C(=O)N3CCc4ccccc43)cc2)n1 | 2.8 | -9 | 2 | -3% | -26
CSc1ccccc1NC(=O)CN(C)CC(=O)Nc1ccc(Cl)cc1F | 1.1 | 2 | -1 | 13% | 22
CC(=O)N1CCN(S(=O)(=O)c2cccc(C(=O)NNC(=O)Cn3ccc(C(F)(F)F)n3)c2)CC1 | 1.1 | -8 | . | . | .
COc1ccc(-c2nnc(SCC(=O)NCc3ccco3)o2)cc1 | -0.8 | 6 | 6 | 3% | -41
CCOc1cccc(OCCCCN2CCCCC2)c1 | -0.5 | -4 | -6 | 0% | -11
Cc1ccc(NC(=O)c2cccc(S(=O)(=O)N3CCCCC3)c2)cc1 | 3.4 | 3 | . | . | .
Cc1nn2c(COc3ccc(NC(=O)C(C)C)cc3)nnc2c2ccccc12 | -15 | -4 | -1 | 4% | .
O=c1c2nnn(Cc3ccccc3)c2ncn1-c1ccccc1 | 0.9 | -7 | 4 | 4% | -24
O=C(OCC(=O)N1CCCC1=O)c1cc(S(=O)(=O)N2CCOCC2)ccc1Cl | 0.0 | -6 | . | . | .
C(=C\c1cccc2ccccc12)/c1nnc(-c2cccs2)o1 | 13 | 5 | 10 | -4% | 2
CCOCCC(=O)Nc1nnc(CCc2ccccc2)s1 | -1.0 | -7 | . | . | .
COC(=O)CN(c1ccccc1)S(=O)(=O)c1ccc(F)cc1 | 3.3 | 0 | 9 | -5% | -22
Cc1ccc(C)c(N(C(=O)c2nsc(Cl)c2Cl)C(C(=O)NC2CCCC2)c2ccc(O)cc2)c1 (centres undefined) | 2.0 | -5 | -23 | 7% | -8
O=C(O)c1ccc(NCc2cccs2)cc1 | -0.1 | -12 | . | . | .
CCOC(=O)Cc1cnc(NC(=O)CSc2nc(N)cc(N)n2)s1 | -0.8 | -5 | 24 | -8% | .
O=C(O)c1cc(S(=O)(=O)N2CCN(C(c3ccccc3)c3ccccc3)CC2)ccc1Cl | 5.9 | -5 | . | . | .
COc1ccccc1/C=C/c1ccc2cccc(O)c2n1 | 1.6 | 100 | . | . | .
OC1CCN(c2ncnc3nc[nH]c23)CC1 | -0.3 | 3 | 0 | 2% | -22
CC(C)(C)c1cc(CN2CCC(O)CC2)cc(C(C)(C)C)c1O | 2.6 | -1 | 7 | -1% | -13
CCc1ncc(C(O)c2cccc3ccccc23)n1C (centres undefined) | -2.7 | -7 | 5 | -5% | -4
O=C(Cn1c(-c2cncs2)nc2ccccc21)NCCc1ccccc1 | 0.8 | 3 | 7 | -1% | -42 | Arbovirus anti repeat=3
S=C(NCCc1ccccc1)N/N=C/c1ccc(Cl)cc1 | 5.3 | 60 | . | 74% | .
O=C(c1ccc(N2CN(C(=O)c3ccco3)c3nc4ccccc4nc32)cc1)N1CCOCC1 | -1.2 | -3 | -13 | 6% | -20
COc1ccc(OCC(=O)NCCNC(=O)c2ccncc2)cc1 | 0.6 | -1 | . | . | .
O=C(Nc1nc(-c2ccccc2)c(-c2ccccc2)s1)c1ccc(S(=O)(=O)N(CCCl)CCCl)cc1 | -25 | 4 | 11 | 7% | -26
COC(=O)c1cccc(NC(=S)Nc2cccc(Cl)c2Cl)c1 | 2.2 | 7 | -1 | -5% | -10
CCCC12CN3CCN(CC(C3)/C1=N\NC(=O)c1ccc(F)cc1)C2 | -1.8 | -5 | 4 | -2% | .
CCN(CC(=O)NC1CCS(=O)(=O)C1)c1nc(-c2ccccc2)nc2ccccc12 (centres undefined) | 3.4 | -7 | 2 | -7% | -30
C/C(=N\n1c(C)nc2ccccc2c1=O)c1ccc(C)o1 | -2.0 | -7 | . | 7% | .
COCCNC(=O)c1c(CSc2ccccc2)noc1C(=O)NCc1ccccc1 | 0.8 | -16 | . | 6% | .
COc1ccc2cc(C3(C)NC(=O)N(CC(=O)NCc4ccco4)C3=O)ccc2c1 (centres undefined) | -3.2 | -1 | 3 | 1% | -2
O=C(NC12CC3CC(CC(C3)C1)C2)c1ccc(-c2cccc(Cl)c2)o1 | 4.5 | 98 | -31 | ? | -33

Molecules above that contain a COOH group:
SMILES | RecA intein inh | Mtb betalactam | Arbovirus anti | Mtb growth | YopH PTP inh | others
O=C(O)c1ccc(NCc2cccs2)cc1 | -0.1 | -12 | . | . | .
O=C(O)c1cc(S(=O)(=O)N2CCN(C(c3ccccc3)c3ccccc3)CC2)ccc1Cl | 5.9 | -5 | . | . | .

New compounds follow:
SMILES | RecA intein inh | Mtb betalactam | Arbovirus anti | Mtb growth | YopH PTP inh | others
Cc1cccc(NC(=O)C2CCCN(S(=O)(=O)c3ccc4[nH]c(=O)ccc4c3)C2)n1 (centres undefined) | -1.6 | -4 | . | . | .
CCOC(=O)C1(CCOc2ccccc2)CCN(C(=O)CCSC)CC1 | -1.4 | -2 | . | . | .
CCOC(=O)NC(Nc1ncccn1)(C(F)(F)F)C(F)(F)F | 0.5 | -8 | 1 | -9% | 23 | Arbovirus anti repeat=4
CC(SCc1ccccc1)C(=O)NN=C1CCN(C)CC1 (centres undefined) | -1.4 | 7 | 0 | -2% | -16
CCOC(=O)N1CCN(S(=O)(=O)c2ccc(C)cc2)C1c1ccccc1 (centres undefined) | -0.9 | 3 | -4 | 0% | -33
COC(=O)c1ccccc1NC(=O)COC(=O)c1ccccc1N=Nc1ccc(N(C)C)cc1 | -1.3 | 7 | 7 | -2% | -35
Cn1c(SCc2cccnc2)nc2cccnc21 | -3.0 | 10 | 5 | 8% | -23
CCC(C)[C@@H](C(=O)N1CCNCC1)n1cc(CCCCN)nn1 (some centres undefined) | -2.1 | -10 | 3 | -10% | .
CCNc1nnc(-c2ccc(C)cc2)o1 | 1.7 | -5 | -1 | -5% | -33
CS(=O)(=O)NNC(=O)Cn1nnc(-c2cc(C(F)(F)F)cc(C(F)(F)F)c2)n1 | 22 | -3 | . | 1% | .
Clc1ccc(-c2nnc3sc(-c4ccc(Br)o4)nn23)cc1 | . | -2 | -6 | 5% | -5
COc1cccc(/C=C/C(=O)OCC(=O)Nc2ccc(N3CCOCC3)cc2)c1OC | -0.4 | 4 | 15 | -6% | .
Cc1cccc([C@@H]2[C@@H]3C(=O)N(Cc4ccccc4)C(=O)[C@@H]3[C@]3(C)C(=O)N(c4cccc(Cl)c4)C(=O)N23)c1 | 5.6 | -2 | . | . | .
COCCCN(C(C)=O)c1nc(-c2ccc(OC)cc2)cs1 | 3.4 | 95 | -30 | 0% | -13
Nc1nc(NCc2ccco2)nc(NCCO)c1[N+](=O)[O-] | -0.4 | -10 | . | -5% | .
CCCS(=O)(=O)N1CCCC(C(=O)N2CCCCC2)C1 (centres undefined) | -1.2 | -1 | . | . | .
CCc1cccc(CC)c1NC(=O)CSc1nnc(C(C)C)n1CC | -2.4 | 0 | 5 | . | -1
Cc1cc(C)n(CC(=O)NCCC2=CCCCC2)n1 | -1.7 | -5 | . | . | .
COC(=O)C1=C(c2cccc(OC)c2OC)C[C@@H]2CC[C@H]1N2C(=O)NCCS(C)=O (some centres undefined) | 0.1 | -5 | . | 11% | .
Cc1c(NC(=O)C2CCCN(S(=O)(=O)c3cnc[nH]3)C2)c(=O)n(-c2ccccc2)n1C (centres undefined) | -53 | 3 | 4 | . | -30
COC(=O)C1=C(C)N(CCCC(=O)O)C(=O)NC1c1ccc(OC)cc1 (centres undefined) | -3.1 | 1 | . | -5% | .
Fc1ccc(COc2ccccc2CNc2nn[nH]n2)cc1 | 1.9 | -2 | 2 | 2% | .
COc1ccc(C(CNC(=O)COc2ccc(F)cc2Br)N2CCCC2)cc1 (centres undefined) | 0.1 | 6 | -6 | -5% | .
COc1ccc2cc3cc(C(=O)NCCN4CCN(Cc5ccccc5)CC4)oc3nc2c1 | -2.3 | 70 | -14 | 2% | 3
CC1CCCN(C(=O)C2CCN(CCCc3ccccc3)CC2)C1 (centres undefined) | 0.2 | -3 | -7 | -1% | -28
Cc1cc(C(=O)NNC(=O)Cc2ccc(Cl)cc2)c(C)o1 | -0.1 | -1 | . | . | .
CCOc1ccc(NC(=O)c2ccccc2SC)cc1 | 0.0 | ? | . | 12% | .
CC(C)CC1Nc2ncnc(N3CCCCC3)c2N(Cc2ccccc2)C1=O (centres undefined) | 5.7 | 4 | . | . | .
COc1cccc(-c2noc(CCC(=O)NC3CCCC3)n2)c1 | -0.6 | 0 | . | . | .
Fc1ccc(C(CCNCc2ccccn2)c2ccc(Cl)cc2)cc1 (centres undefined) | 5.5 | 94 | . | . | .
O=C(O)COc1ccc(C(=O)c2ccccc2)cc1 | -0.4 | -2 | 4 | -7% | .
CCS(=O)(=O)N1CCC(C(=O)NCc2ccc(F)cc2)CC1 | 0.8 | 3 | 2 | 4% | -78
CC(=O)N1c2ccc(S(=O)(=O)N3CCC(C(=O)Nc4cc(C)ccn4)CC3)cc2CC1C (centres undefined) | 2.0 | 2 | . | . | .
CCn1c(SCC(=O)N/N=C/c2c[nH]c3ccccc23)nnc1-c1ccc(C(C)(C)C)cc1 | 3.6 | 1 | -39 | 4% | -23
CCN1C(=O)[C@H]2[C@@H](c3ccc(C)cc3)N3C(=O)N(c4ccc(C)cc4)C(=O)[C@@]3(C)[C@H]2C1=O | -0.8 | 5 | . | . | .
O=C(N/N=C/C=C/c1ccco1)c1ccccc1Cl | 2.8 | 2 | -10 | -5% | .
COC(=O)c1cc(NC(=O)c2c(-c3ccccc3)noc2C)ccc1N1CCOCC1 | -0.1 | -6 | . | . | .
O=S(=O)(c1ccc(Cl)cc1)N1CC1c1ccccc1 (centres undefined) | 3.1 | 0 | -1 | -3% | -21
COc1ccc(N=C2NC(=O)/C(=C/c3ccc(O)c(OC)c3)S2)cc1 | 0.6 | 1 | -14 | -1% | -55
